# Screening results from PubChem.
# RE007 growth inh = less growth of the S. pombe RE007 Vpr strain. Potency, µM (doses to about 92.2 µM), for the others: at the top dose activity change, negative = less growth. S. pombe RE007 Vpr strain, BacTiter-Glo ATP luminescence, 24 h; control for the full effect not named in the record. AID 651644. actives 0.21% (n = 360,000); active = well fitted falling curve with a large enough effect; inconclusive = small, poorly fitted or top-dose-only effect; inactive = no such curve, though single readings can be large or run the other way;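 also: % is scaled to controls: 0 for no effect and ±100 for the full control effect; nearly all actives have a fitted effect of over 50% in size; the assay follows cell death caused by Vpr and the record does not say whether a fall means rescue or toxicity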
#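 Fission yeast strain RE007, carrying one chromosomally integrated HIV-1 vpr copy, was seeded at OD 0.01 in PMG+AL medium with 23 nL pinned compound. After 24 h at 30 °C and 99% humidity, viability was read by BacTiter-Glo luminescence.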
# NS1 function inh = influenza NS1 inhibition; Potency, µM (highest dose often 46.1 µM), without a hit: top-dose activity, positive = more growth; S. cerevisiae slowed by influenza A NS1, growth recovery by OD600; actives 0.4% (n = 270,000); active means well fitted rising curve with a large enough effect; inconclusive means small, poorly fitted or top-dose-only effect; inactive means no such curve, though single readings can be large or run the other way; also: nearly all actives have a fitted effect of over 50% in size
#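 Read-out: OD600 growth recovery of NS1-expressing budding yeast. Cells grown overnight at 30C in -URA glucose medium, washed, resuspended and diluted 1:100 in 2% galactose assay medium, pH 6.0. Same strain lacking NS1 served as positive control.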
# Cruzain inh noDet = blocks cruzain activity in detergent-free assay; P25779; purified cruzain, Z-FR-AMC fluorescence, no detergent; Potency, µM, without a hit: max response, negative = inhibition, hits mostly inhibitors; actives 2.3% (n = 200,000); AID 1476;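 also: plate controls were enzyme without inhibitor for no effect and buffer without enzyme for full effect; nearly all actives have a fitted effect of over 40% in size; top concentration of the series not given in the record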
# Target sequence (P25779 123-467 limits assumed): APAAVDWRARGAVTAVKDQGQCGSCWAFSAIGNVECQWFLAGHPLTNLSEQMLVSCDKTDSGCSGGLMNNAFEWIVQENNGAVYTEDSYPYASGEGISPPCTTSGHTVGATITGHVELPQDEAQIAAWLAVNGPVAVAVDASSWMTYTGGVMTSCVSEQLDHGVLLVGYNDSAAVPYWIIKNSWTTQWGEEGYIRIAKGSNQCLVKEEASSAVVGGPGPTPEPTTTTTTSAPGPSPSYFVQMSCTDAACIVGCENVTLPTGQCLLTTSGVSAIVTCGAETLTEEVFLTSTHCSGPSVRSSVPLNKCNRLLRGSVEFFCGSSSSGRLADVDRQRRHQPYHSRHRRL
#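 Detergent-free condition (0.00005% Triton X-100) in acetate buffer pH 5.5 with DTT. 1.5 nM enzyme and compound were pre-mixed 15 min, then 2 uM Z-FR-AMC substrate added; reaction progress from fluorescence change between first and third reads (60 s).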
# SARS PLP yeast = SARS-CoV PLP inhibition in yeast; S. cerevisiae expressing SARS-CoV PLpro, growth rescue; control for the full effect not named in the record; Potency, µM (doses to about 32.9 µM), without a hit: top-dose activity, positive = growth rescue; actives 0.19% (n = 330,000); AID 485353; active means well fitted rising curve with a large enough effect; inconclusive means small, poorly fitted or top-dose-only effect; inactive means no such curve, though single readings can be large or run the other way; also: 0% is about no effect; nearly all actives have a fitted effect of over 55% in size; growth read by luminescence after 48 h
# StopGo reporter = lowers the luciferase signal of an FMDV 2A StopGo reporter; human cells with a luciferase reporter of 2A StopGo recoding; control for the full effect not named in the record; Potency, µM (titrated, usually from 57.9 µM), for inactives: top-dose signal change, negative = less light; actives 1.2% (n = 410,000); active = well fitted falling curve with a large enough effect; inconclusive = small, poorly fitted or top-dose-only effect; inactive = no such curve, though single readings can be large or run the other way; tested in HEK293T cells; also: % is scaled to controls: 0 for no effect and ±100 for the full control effect; nearly all actives have a fitted effect of over 45% in size; luciferase light after 4 h
# Cruzain inh Det = cruzain (T. cruzi) inhibition with detergent; P25779; purified cruzain, Z-FR-AMC fluorescence, 0.01% Triton; Potency, µM, inactives show max response, negative = inhibition, usual class: inhibitors; actives 0.43% (n = 200,000);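 also: plate controls were neutral wells for no effect and buffer without enzyme for full effect; nearly all actives have a fitted effect of over 40% in size; top concentration of the series not given in the record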
#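 Read-out: AMC fluorescence (360 nm excitation, 450 nm emission), four reads over 2 min, first-to-third difference used. Conditions: cruzain 1.5 nM, Z-FR-AMC 2 uM, pH 5.5 acetate, 5 mM DTT, 0.01% Triton X-100.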
# Lassa entry inh = Lassa virus entry inhibition | Lassa virus pseudotype entry inhibition, cell reporter; control for the full effect not named in the record | Potency, µM (highest dose often 37.9 µM), for inactives: top-dose activity change, negative = inhibition, actives largely listed as inhibitors | actives 1.2% (n = 300,000); active means well fitted inhibition curve with a large enough effect; inconclusive means small, poorly fitted or top-dose-only effect, or effect the other way; inactive means flat fitted curve, though single readings scatter; tested in HEK293 cells; also: % is scaled to controls: 0 for no effect and ±100 for the full control effect; nearly all actives have a fitted effect of over 50% in size; luciferase read-out
# MARV entry inh = Marburg virus entry inhibition; actives 1.8% (n = 300,000); Marburg virus pseudotyped entry inhibition, cell reporter; control for the full effect not named in the record; about a third of the inactives were read at about 46 µM; Potency, µM (titrated, usually from 37.8 µM), for inactives: top-dose activity change, negative = inhibition, most hits filed as inhibitors; AID 540276; active = well fitted inhibition curve with a large enough effect; inconclusive = small, poorly fitted or top-dose-only effect, or effect the other way; inactive = flat fitted curve, though single readings scatter; tested in HEK293 cells; about a fifth of its hits are not listed in these tables; also: % is scaled to controls: 0 for no effect and ±100 for the full control effect; luciferase read-out
# * = called active by the depositor; ? = inconclusive; / = not tested or not shown; & = joins results of further samples; [ ] = remark or other dose. Unless noted, calls follow the shape of the dose curve; as a rule, active = well fitted curve in the direction sought with a large enough effect; inconclusive = small, poorly fitted or top-dose-only effect, or another doubt; inactive = no such curve, though single readings can be large; an effect the other way counts as inactive or inconclusive. Potency is read from the fitted curve at half-maximal effect.
# Start of the listing, in advance, 3 compounds:
SMILES | RE007 growth inh | NS1 function inh | Cruzain inh noDet | SARS PLP yeast | StopGo reporter | Cruzain inh Det | Lassa entry inh | MARV entry inh
Cc1cccc(CN2C(=O)c3ccccc3S(=O)(=O)c3ccc(C(=O)OCC4CCCO4)cc32)c1 (centres undefined) | / | / | 6.4% | / | -7.1% | -1.4% | -24.4%[46.1 µM] | /
CCOC(=O)c1c(C)[nH]c(C)c1S(=O)(=O)NCC(=O)Nc1cccc(C#N)c1 | / | / | 2.5% | / | 17.1% | -0.6% | 9.9%[46.1 µM] | /
CC(=O)c1cccc(NC(=O)CCCSc2ccccc2)c1 | -0.1% | -28.9% | / | -2.3% | 14.1% | / | ? | ?

# All compounds of this part (from the top)
SMILES | RE007 growth inh | NS1 function inh | Cruzain inh noDet | SARS PLP yeast | StopGo reporter | Cruzain inh Det | Lassa entry inh | MARV entry inh
Cc1cccc(CN2C(=O)c3ccccc3S(=O)(=O)c3ccc(C(=O)OCC4CCCO4)cc32)c1 (centres undefined) | / | / | 6.4% | / | -7.1% | -1.4% | -24.4%[46.1 µM] | /
CCOC(=O)c1c(C)[nH]c(C)c1S(=O)(=O)NCC(=O)Nc1cccc(C#N)c1 | / | / | 2.5% | / | 17.1% | -0.6% | 9.9%[46.1 µM] | /
CC(=O)c1cccc(NC(=O)CCCSc2ccccc2)c1 | -0.1% | -28.9% | / | -2.3% | 14.1% | / | ? | ?
O=C(Nc1c(-c2ccccc2)nc2ccccn12)c1ccco1 | -16.4% | -7.5% | -8.7% | 0.6% | -11.1% | 7.7% | 7.3% | -14.1%
CCCN1CCN(S(=O)(=O)c2ccc(OC)c(Br)c2)CC1 | 24.8% | 2.0% | 3.2% | -6.0% | -17.7% | 3.0% | -5.2% | ?
COc1ccccc1NC(=S)NCCN1CCOCC1 | -9.2% | 3.9% | 14.4% | -9.7% | -10.1% | -0.4% | 1.6% | 6.6%
CCC(CC)C(=O)Nc1cc(-c2cccc(C)c2)nn1-c1ccccc1 | / | / | 2.8% | / | -7.8% | -3.4% | 26.7%[46.1 µM] | /
COc1ccc(C(=O)N2CC=C(c3ccccc3)CC2)cc1S(=O)(=O)N1CCOCC1 | 22.9% | -3.0% | ? | -6.9% | 14.3% | -9.9% | -2.0% | -0.1%[46.1 µM]
COc1ccccc1CN(C)C(=O)c1cc2ccccc2o1 | 6.7% | -21.2% | / | -8.4% | 36.4%[activator] | / | -8.3% | -25.1%[46.1 µM]
O=C(CSc1ncnc2nc[nH]c12)c1ccccc1 | -13.0% | 1.1%&20.2% | 3.5%&7.0% | -0.9% | 34.7%[activator] | 3.3%&-1.1% | ? | -23.5%&-23.5%&-23.5%
Cn1c(SCc2ccccc2)nnc1-c1ccc2nonc2c1 | -1.0% | -2.0% | / | -0.6% | 25.4% | / | 10.9%[46.1 µM] | 6.5%[46.1 µM]
CC(C)(C)n1nnnc1C(c1cccs1)N(Cc1ccccc1)Cc1cccnc1 (centres undefined) | -22.5% | -60.3% | 3.6% | 4.1% | ? | -1.2% | 3.4% | -6.7%
COc1ccc(OC)c2c1nc1n2CCS1 | -0.5% | 3.7% | 6.0% | -1.2% | -9.1% | -2.5% | 0.8% | 2.4%
Cc1cc(-c2ccc(Cl)cc2)n2nc(N)nc2n1 | -5.8% | 1.1% | 12.0% | 4.4% | -3.2% | -10.2% | 19.4% | 0.7%
COc1ccc(NC2SC(=O)N(C)C2=O)cc1 (centres undefined) | -3.0% | -36.0% | / | ? | 6.7% | / | / | /
O=C(CCSc1ccccc1)Nc1nnc(-c2ccccc2)o1 | 8.9% | -9.6% | -17.3% | 0.0% | -14.6% | -1.4% | / | /
CCOc1ccccc1N1CCN(Cc2ccc(OC)c(OC)c2OC)CC1 | -0.1% | 2.3% | -5.8% | -1.5% | -20.7% | 1.4% | 37.2%[14.3 µM] | -24.1%
OCC[C@@H]1C[C@@H](O)[C@H](O)[C@]2(Cc3ccccc3CCO2)O1 | 9.7% | 4.6% | / | -2.4% | -7.6% | / | / | /
Cc1nc(C)c(Cc2ccccc2Cl)c(=O)[nH]1 | -5.9% | 5.5% | 4.4% | -16.0% | -18.4% | 0.3% | 0.6% | 8.8%
COc1ccccc1NC(=O)N1CCN(c2ncccn2)CC1 | -0.3% | -1.7% | 3.5% | -2.9% | -5.0% | -3.0% | -0.9% | 7.7%&7.7%
Cc1c(-c2nc(-c3ccc4c(c3)OCO4)no2)nnn1-c1ccc(C(C)C)cc1 | / | / | -11.4% | / | -5.4% | 3.1% | 11.6%[46.1 µM] | /
COCc1cc(C)nc2sc3c(c12)NC(c1ccc(O)cc1)N(c1ccc(OC)cc1)C3=O (centres undefined) | / | / | ? | / | -8.8% | -8.6% | ? | ?
Cc1sc2ncn(CC(=O)OC(C)C(=O)NC(C)(C)C)c(=O)c2c1C (centres undefined) | 16.4% | -53.2% | 17.3% | 5.1% | -19.2% | -0.2% | 5.3% | 24.0%
CN(Cc1ccccn1)C(=O)C1CCC(=O)N(Cc2cccc(C(F)(F)F)c2)C1 (centres undefined) | 0.7% | -1.2% | / | -3.4% | 1.4% | / | / | /
COc1ccc(Cn2c(=O)c3ccccc3n3c(-c4ccc(C)cc4)nnc23)cc1 | / | / | -5.8% | / | -20.3% | -3.0% | -4.3%[46.1 µM] | ?
CC(O)(CS(=O)(=O)c1ccccc1)C(=O)Nc1ccc(C(F)(F)F)cc1 (centres undefined) | 8.3% | 2.0% | 9.7% | -1.3% | -28.5% | 2.2% | ? | 4.0%
COC(=O)c1sccc1NC(=O)C1CC(C)=C(C)CC1C(=O)O (centres undefined) | 5.2% | 5.5% | / | 1.5% | -10.4% | / | 24.6%[46.1 µM] | 1.8%[46.1 µM]
CCCCCc1nnc(NC(=O)C2COc3ccccc3O2)s1 (centres undefined) | -6.4% | / | / | -2.2% | 39.1%[activator] | / | 15.7% | 4.0%[46.1 µM]
O=C(c1ccc(N2CCN(S(=O)(=O)c3ccccc3)CC2)c([N+](=O)[O-])c1)N1CCOCC1 | -3.9% | -15.6% | 21.0% | -6.5% | -19.3% | -2.8% | -25.3% | -0.5%
Oc1ccccc1-c1nc(NCc2cccnc2)c2ccccc2n1 | -17.5% | -0.6% | / | -6.0% | -1.6% | / | / | /
Cc1ccccc1CNC(=O)CSc1nnc(C)c2c(C)n(-c3ccccc3)nc12 | / | / | 2.6% | / | -18.9% | -0.6% | 3.1%[46.1 µM] | /
CCS(=O)(=O)c1nc(S(=O)(=O)c2ccc(C)cc2)c(NCCCN2CCOCC2)s1 | 5.2% | 1.3% | / | -1.8% | 0.0% | / | 0.9%[46.1 µM] | 22.0%[46.1 µM]
O=C(NCCCN1CCOCC1)c1cccc(S(=O)(=O)N2CCc3ccccc3C2)c1 | 0.2% | / | / | -1.4% | -21.9% | / | 14.8%[46.1 µM] | -20.6%[46.1 µM]
N/C(=N\OC(=O)c1cnn(-c2ccccc2)c1C(F)(F)F)c1ccc(C(F)(F)F)cc1 | -7.5% | -1.8% | / | -0.9% | -16.8% | / | 14.4% | -2.7%
C=CCN(C(=O)c1csnn1)C(C(=O)NCc1ccc(F)cc1)c1ccccc1 (centres undefined) | 12.0% | -6.1% | / | 10.9% | -7.9% | / | ? | -16.0%[46.1 µM]
CCCC1C(=O)N(c2ccccc2)C1c1ccccc1 (centres undefined) | 11.7% | 4.9% | -3.6% | 4.6% | -14.2% | -1.9% | 2.9% | 1.7%
COc1ccc(S(=O)(=O)N2CCN(Cc3nc4ccc(C)cc4o3)CC2)cc1Cl | / | / | 34.5% | / | 0.0% | -2.3% | 12.1%[46.1 µM] | /
Cc1cc(C)n(CC(C)Nc2nc3nonc3nc2N2CCCCC2)n1 (centres undefined) | 2.1% | -0.9% | / | 0.1% | -14.7% | / | -15.5% | 5.0%[46.1 µM]
CCCC(=O)C1=C(O)C(C(=O)OC)C(C)(C)CC1=Nc1ccccc1 (centres undefined) | 14.2% | -43.0% | -6.0% | 0.7% | 0.0% | -2.9% | ? | -21.2%[46.1 µM]
COc1ccccc1N1CCN(C(=O)Nc2cccc(C)c2)CC1 | -0.7% | -18.9% | 8.2% | 0.2% | 9.9% | 0.4% | 1.3% | ?
CCOc1cc(C(=O)OCC(=O)Nc2cc(C)on2)ccc1OCC(C)C | -4.6% | -11.5% | / | -0.3% | 0.3% | / | 9.7% | -0.2%[46.1 µM]
CCOC(=O)COc1cc(=O)n(CC)c2ccccc12 | / | -25.3% | 1.7% | -1.5% | -2.8% | 3.0% | / | 8.6%
FC(F)(F)c1cccc(N2CCN(c3nnnn3-c3ccccc3)CC2)c1 | -6.0% | -45.4% | -7.3% | -12.4% | ? | -3.9% | -23.2% | -10.0%
COc1cccc(C(=O)NCCS(=O)(=O)NCC2CCCO2)c1 (centres undefined) | -10.2% | / | / | 0.5% | -13.9% | / | 5.5%[46.1 µM] | -11.1%
COc1ccc(OC)c(CNc2nc3ccccc3n2CCN2CCCCC2)c1 | 10.9% | -7.5% | -6.4% | 6.8% | -10.1% | -0.8% | -10.6% | ?
CC(C)CNC(=O)c1ccc(NC(=O)c2ccccc2[N+](=O)[O-])cc1 | 2.6% | 4.3% | -13.5% | -7.5% | 10.4% | 0.7% | -1.3% | -1.8%
COc1ccc(C2c3c(n(C)c4ccccc34)C(=O)N2CC(=O)Nc2cccc(F)c2)cc1 (centres undefined) | / | / | 7.6% | / | -3.7% | -5.6% | -12.1%[46.1 µM] | /
O=C(NCCOC(=O)C1COc2ccccc2O1)c1cccnc1 (centres undefined) | 22.8% | -0.3% | 2.4% | 1.3% | -10.5% | 6.6% | 7.1% | -20.3%

# This is a random part of the collection; 4.7% or so of the library scored in one or more.
